Screening results from PubChem.
GIRK2 act = activators of human GIRK2 potassium channels. 0.05% of 63,000 active. HEK293-GIRK2 thallium flux, Thallos fluorescence. calls only for hits at 25 µM. G protein-activated inward rectifier potassium channel 2 (Homo sapiens), P48051;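 active = among the strongest 0.2% of first-round signals and kept after retests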;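 also: first round at about 10 µM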
Target sequence (P48051 whole entry, looked up): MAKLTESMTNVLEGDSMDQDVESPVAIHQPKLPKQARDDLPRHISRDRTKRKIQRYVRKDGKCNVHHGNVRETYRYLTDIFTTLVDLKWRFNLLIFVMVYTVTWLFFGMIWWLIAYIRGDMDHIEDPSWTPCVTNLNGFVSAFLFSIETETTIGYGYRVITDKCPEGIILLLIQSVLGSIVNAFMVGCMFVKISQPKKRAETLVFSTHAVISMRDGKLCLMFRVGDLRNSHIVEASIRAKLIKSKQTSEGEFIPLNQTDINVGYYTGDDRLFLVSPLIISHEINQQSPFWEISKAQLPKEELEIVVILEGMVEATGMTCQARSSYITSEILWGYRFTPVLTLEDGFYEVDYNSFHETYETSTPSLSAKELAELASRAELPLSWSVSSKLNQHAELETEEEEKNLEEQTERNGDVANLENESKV
Calls only; i = inactive. The list is partial; the hit share may differ from the screen's.

GIRK2 act	Molecule
i	CCOc1cc(NS(=O)(=O)c2ccccc2C(F)(F)F)ncn1
i	CCOC(=O)C1CCN(c2ccnc(=S)[nH]2)CC1
i	O=C(Cc1ccc(F)cc1)N(Cc1cccnc1)c1nc2ccc(F)cc2s1
i	O=C(CN1CCN(c2ccc(F)c(F)c2)C1=O)N1CCN(c2ccccn2)CC1
i	COc1cc(NC(=O)c2cc(=O)c(OCc3ccccc3)c[nH]2)cc(OC)c1OC
i	COc1ccc(Cl)cc1S(=O)(=O)NCC(C)(O)CSC (centres undefined)
i	CCCN(CCC)CC(O)COc1ccc2ccccc2c1 (centres undefined)
i	COc1ccc(CNc2nccn(-c3ccc(Br)cc3)c2=O)cc1
i	COc1ccc(CCNC(=O)N2CCC(Cn3ccnc3)CC2)cc1
i	Cc1ccc(Nc2nc(NCc3cccnc3)nc3n[nH]nc23)cc1
i	O=C(CCC1CCCC1)NC1CCN(C(=O)c2cc(-c3ccccc3)n[nH]2)CC1
i	Cc1ccc(Cn2c(=O)c3c(nc4n(CCN(C)C)c(C)c(C)n34)n(C)c2=O)cc1

(cont.)
GIRK2 act	Molecule
i	Cc1cc(NC(=O)CN2CC(c3nc(-c4cccc(Cl)c4)no3)C2)no1
i	O=C(NCc1cccs1)C(=O)NCC(O)(c1ccccc1)C(F)(F)F (centres undefined)
i	CCN(CCCNC(=O)CCn1c(=O)[nH]c2ccccc2c1=O)c1cccc(C)c1
i	Cc1nc2n(c(=O)c1C)C(CC(=O)Nc1cc(N3CCC(C)CC3)ncn1)CS2 (centres undefined)
i	Cc1noc(C)c1CCC(=O)N1CCC(Oc2nc3c(C)cccc3s2)CC1
i	CCCCN1C(SCc2cc(C=O)ccc2OC)=NS(=O)(=O)c2ccccc21
i	O=C(c1ccc(=O)[nH]c1)N1CCC(COCc2ccccc2)CC1
i	O=C(NCCN1CCCC1)c1ccc(Cn2c(=S)[nH]c3cc4c(cc3c2=O)OCO4)cc1
i	CC(C)c1c(C(=O)Nc2cc(Cl)ccc2Cl)nnn1-c1ccc(Cl)cc1
i	COc1ccc2c(=O)c3c(=O)n(CCc4ccc(OC)c(OC)c4)c(C)nc3oc2c1
i	O=C(CCCCCn1c(=O)c2sccc2n(Cc2ccc(F)cc2)c1=O)NCc1ccccc1
i	COCCNC(=O)CSc1nc(-c2cccc(OC)c2)[nH]c1-c1ccccc1

More entries follow:
GIRK2 act	Molecule
i	CCc1cccc(OCC(O)Cn2c(NN)nc3c2c(=O)n(C)c(=O)n3C)c1 (centres undefined)
i	CCOC(=O)c1ccc(NC(=O)/C=C/C2=Cc3ccccc3OC2)cc1
i	COC(=O)[C@@]1(C)CC[C@]2(C(=O)O[C@@H]3O[C@H](CO)[C@@H](O)[C@H](O)[C@H]3O)CC[C@]3(C)C(=CCC4[C@@]5(C)C[C@H](O)[C@H](O[C@@H]6OC[C@@H](O)[C@H](O)[C@H]6O)[C@@](C)(CO)C5CC[C@]43C)[C@@H]2C1 (some centres undefined)
i	COc1cc(CCN2C(=O)c3cccc4cccc(c34)C2=O)c(S(=O)(=O)N2CCC(C)CC2)cc1OC
i	Cc1ccc(Cl)cc1-n1c(C)cn2c3c(=O)n(CCCO)c(=O)n(C)c3nc12
i	COc1ccc(SCC2CCN(C(=O)c3ccccc3F)CC2)cc1
i	O=C1CCSCC(C(=O)NCC(F)(F)F)N1 (centres undefined)
i	COc1cc(-c2noc(CN3C(=O)COc4ccc(C)cc43)n2)cc(OC)c1OC
i	Cc1nn(-c2ccccc2)c(OC(=O)CCCc2ccccc2)c1S(=O)(=O)c1ccccc1
i	Cc1ccc(C(C)C)c(OCCn2c(CO)nc3ccccc32)c1
i	COc1ccc(CNC(=O)CN2CCC(c3nc(-c4cccc(F)c4)no3)CC2)cc1
i	O=C(c1cnn(-c2ccccc2)n1)N1CC(c2nc(-c3cccc(C(F)(F)F)c3)no2)C1

The listing continues.
GIRK2 act	Molecule
i	COc1ccccc1N1CCN(c2nccn3nc(-c4ccc(F)cc4)cc23)CC1
i	CS(=O)(=O)N1CCC(C(=O)N2CCc3nc(NC(=O)c4ccco4)sc3C2)CC1
i	Cc1ccc(C)c(S(=O)(=O)NCCNc2cc(Nc3ccccn3)ncn2)c1
i	Cn1cccc(C(=O)NCC2CCN(C(=O)c3ccoc3)CC2)c1=O
i	Cn1c(=O)c2cc(C(=O)NCc3ccco3)n(Cc3ccco3)c2n(C)c1=O
i	COc1cccc(-n2c(C)cn3c4c(=O)n(Cc5ccc(C)cc5)c(=O)n(C)c4nc23)c1
i	O=C(Nc1cnoc1)c1c(F)cccc1F
i	CC(C)(C)c1ccc(C(=O)NC2CCN(C(=O)c3cn(-c4ccccc4)nn3)CC2)cc1
i	Cc1cc(C)n(-c2nc(CCNC(=O)C3(c4ccccc4)CCOCC3)cs2)n1
i	CCc1ccc(NC(=O)Cn2c(=O)n(Cc3nc(C)no3)c(=O)c3ccccc32)cc1
i	COc1ccc(Cl)cc1NC(=O)N1CCC(CSc2ccccn2)CC1
i	Cn1c(N2CCCC2)nc2c1c(=O)n(CC(N)=O)c(=O)n2C

Continued:
GIRK2 act	Molecule
i	CCn1c(C)c(C(C)=O)c2cc(OCC(O)CN3CCN(C)CC3)ccc21 (centres undefined)
i	CC1CCCN(c2nccn3c(=O)n(CC(=O)Nc4cccc(Br)c4)nc23)C1 (centres undefined)
i	COc1ccc(CNC(=O)c2nnn(-c3cccc(F)c3C)c2-c2cccnc2)cc1
i	CC(=O)CC1(O)C(=O)N(Cc2ccccc2)c2ccc(Br)cc21 (centres undefined)
i	NC1=C2C(=O)Oc3ccccc3C2C2C(=O)N(c3ccc(C(=O)O)cc3)C(=O)C2S1 (centres undefined)
i	Cc1ccc(Nc2c(Cl)cc(Cl)cc2Cl)c(CC(=O)O)c1
i	COc1ccc(CNC(=O)Nc2ccc3c(c2)OCC(C)(C)C(=O)N3CC(C)C)cc1OC
i	N#Cc1cccc(C(=O)N2CC(Oc3nc4ccccc4s3)C2)c1
i	COCCSc1nnc(C)c2cnn(-c3ccccc3)c12
i	CCOC(=O)CNC(=O)c1csc(-c2cnccn2)n1
i	CCOCC(=O)N1CCC(CSc2ccc(OC)cc2)CC1
i	COc1ccc(-c2noc(CNC(=O)c3cc4cccc(OC)c4o3)n2)cc1

The results go on.
GIRK2 act	Molecule
i	Cn1ccc(-c2nnc(NC(=O)c3cnc4ccccc4n3)o2)n1
i	O=C(CCn1c(=O)[nH]c2ccccc2c1=O)NCc1ccc2c(c1)OCO2
i	CCCCCCCCCCC/C=C\C(C)(C)/C=C\CCCC(=O)O
i	CCOc1ccc(-c2n[nH]c(C)c2Oc2ccc(OC)cc2)c(O)c1
i	CCOc1ccc(N2CCN(CC(=O)NCc3ccc(F)cc3F)C2=O)cc1
i	CN(c1ccsc1C(=O)Nc1cccc(Cl)c1)S(=O)(=O)c1ccc(Cl)cc1
i	O=C(CSc1ncc(-c2ccccc2)n1-c1ccccc1)N1CCCC1
i	O=C(c1cnn(-c2ccccc2)n1)N1CC(c2nc(-c3ccccn3)no2)C1
i	CCN1C(=O)CCc2cc(NC(=O)c3cc(OC)c(OC)c(OC)c3)ccc21
i	CSc1ccc(/C=C2\C=C(CC(=O)NCc3ccncc3)c3cc(F)ccc32)cc1
i	COCCN(Cc1ccncc1)S(=O)(=O)c1cc(C)c(C)cc1OC
i	Cc1ccc(NC(=O)Cn2nc(N(C)C)c3ccccc3c2=O)cc1F

(next part)
GIRK2 act	Molecule
i	CC(C)(C)c1ccc(C(=O)Nc2cnc(N3CCCC3)nc2)cc1
i	CCOC(=O)c1cn[nH]c1S(=O)(=O)N1CCN(c2ccc(C(C)=O)cc2)CC1
i	CCOc1ccc2nc(C(=O)OC)cc(Nc3cc(OC)cc(OC)c3)c2c1
i	COc1cccc(-n2c(C)c(C)n3c4c(=O)n(CCN5CCOCC5)c(=O)n(C)c4nc23)c1
i	CC1Oc2ccccc2OC1C(=O)N1CCC(Oc2cccnc2)CC1 (centres undefined)
i	O=C(Cn1cccc(-c2nc(-c3ccc(Br)cc3)no2)c1=O)NCc1ccco1
i	O=C(NCCCN1CCOCC1)C(=O)NCC1OCCCN1S(=O)(=O)c1ccc(Cl)cc1 (centres undefined)
i	O=C(NCCN1CCN(C(=O)NCc2cccs2)CC1)c1ccsc1
i	O=C(NCC1CCN(C(=O)Oc2ccccc2)CC1)c1cccc(Br)c1
i	CC(=O)Nc1ccc(NC(=O)Cn2nc(-c3ccccc3)ccc2=O)cc1
i	Cc1cccc(NC(=O)c2ccc(S(=O)(=O)N3CCCc4ccccc43)cc2)c1C
i	COc1ccc(/C=C/C(=O)Nc2ccccc2Cl)cc1Br

Following part.
GIRK2 act	Molecule
i	S=c1nc[nH]c2[nH]ncc12
i	O=C(Nc1nc2c(s1)CN(C(=O)c1ccccc1F)CC2)NC1CCCC1
i	Cc1ccc(NC(=O)C2CCN(c3c(C#N)cnc4ccccc34)CC2)cc1F
i	O=C(CSc1nnc(-c2ccccc2)c2ccccc12)N1CCOCC1
i	CC(=O)N1CCc2c(sc(NC(=O)c3ccc(C)cc3C)c2-c2nc3ccccc3s2)C1
i	COCCCn1c(C(=O)NC(C)c2ccccc2)cc2c(=O)n3ccccc3nc21 (centres undefined)
i	CCc1ccc(-n2c(C)cn3c4c(=O)n(CC(C)=O)c(=O)n(C)c4nc23)cc1
i	O=C(Cc1cccs1)N1CCC(Oc2ncccc2Cl)CC1
i	Cc1nc2ccccn2c(=O)c1NC(=O)Nc1ccc2c(c1)OCCO2
i	Nc1c(C(=O)c2cccc(OCCN3CCOCC3)c2)cnn1-c1ccc(F)cc1
i	CN(C)c1ccc(NC(=O)/C=C\c2ccccc2)cc1
i	Cc1cc(-n2nnc(C(=O)NC3CCCCCC3)c2-c2ccncc2)ccc1F

The listing continues.
GIRK2 act	Molecule
i	Cn1nc(-c2ccccc2)cc1C(=O)NCCOc1ccc(-c2ccccc2)nn1
i	CC1=C(C(=O)Nc2ccc3[nH]ncc3c2)C(c2ccc3ccccc3c2)CC(=O)N1 (centres undefined)
i	Cc1oc2cc(OC(=O)N3CCOCC3)ccc2c(=O)c1Oc1ccccc1Br
i	CCc1ccc(-n2ncc3c(=O)n(Cc4nc(-c5ccccc5)no4)cnc32)cc1
i	Cc1ccc(CNC(=O)CN2CCCN(Cc3cccc(Cl)c3)S2(=O)=O)cc1
i	COc1ccc(CNc2ccc(S(=O)(=O)Cc3ccc(Cl)cc3)nn2)cc1
i	CCOc1ccc(-n2c(C)cn3c4c(=O)n(Cc5ccccc5)c(=O)n(C)c4nc23)cc1
i	O=C(Nc1cc(N2CCCC2)ncn1)c1cccc(F)c1
i	COCCN1CCn2c1nc1c2c(=O)n(CCOC)c(=O)n1C
i	NC(=O)c1ccc(NC(=O)c2c[nH]c3ccccc3c2=O)cc1
i	COc1ccc(-n2nnc(C(=O)Nc3cccc(C(C)=O)c3)c2C)cc1
i	COc1ccc(CCNC(=O)C2CCCN(c3ccc(-c4ccc(F)cc4)nn3)C2)cc1OC (centres undefined)

Next section
GIRK2 act	Molecule
i	COc1ccccc1CCNC(=O)C(=O)c1cn(CC(=O)N2CCCC2)c2ccccc12
i	Cc1nc2cc(NC(=O)c3coc(NC(=O)c4ccccc4)n3)ccc2s1
i	Cc1csc(C(=O)NCC2CCN(C(=O)c3ccoc3)CC2)c1
i	O=C(NCCCOc1cccc2cccnc12)c1cc(=O)c2ccccc2o1
i	COc1ccccc1CNC(=O)C1CCC(CNS(C)(=O)=O)CC1 (centres undefined)
i	CCOC(=O)c1sc(NC(=O)c2cn(CC)c3nc(C)ccc3c2=O)nc1C
i	Cc1nnc(NC(=O)CN2CCc3nc(NC(=O)c4cnccn4)sc3C2)s1
i	Cc1ccccc1NC(=O)NCCC(O)c1ccccc1 (centres undefined)
i	CCCc1cnc2c(c1SCC(=O)NCCc1ccccc1)c(=O)n(C)c(=O)n2C
i	O=S(=O)(c1ccc2c(c1)OCCO2)N1CCc2ccccc21
i	Cc1nc(Nc2ccc(NC(=O)Nc3cccc(F)c3)cc2)cc(-n2cccn2)n1
i	CCS(=O)(=O)N1CCC(c2nnc(Cc3ccc(OC)cc3)s2)CC1

Following part.
GIRK2 act	Molecule
i	CNCC1CCn2c(c(C3=C(c4cn(C)c5ccccc45)C(=O)NC3=O)c3ccccc32)C1 (centres undefined)
i	CCC(=O)Nc1nc(-c2cccc(Cl)c2)c(C)s1
i	O=C(Nc1nc(-c2cccnc2)cs1)c1csc(-c2ccccc2)n1
i	COc1cccc(NC(=O)NCCNc2cc(Nc3cc(C)ccn3)ncn2)c1
i	Cn1nc(-c2ccc(F)cc2)cc1C(=O)N1CCC(c2ccccc2)C1 (centres undefined)
i	COc1nn(C)cc1C(=O)N1CCC(Oc2nc3ccc(F)cc3s2)CC1
i	CC(C)(C)CC(=O)N1CCN(c2ccc(-c3noc(C(F)(F)F)n3)cn2)CC1
i	Cc1cc(NC(=O)c2cnn(-c3ccccc3)c2C)sn1
i	CCc1nc(N)n(CC(=O)NCc2ccc(C)cc2)c(=O)c1C
i	Cn1nc(N2CCC(C(=O)NCc3nc(-c4ccccc4)no3)CC2)ccc1=O

Compounds listed so far with an NH in an aromatic ring:
GIRK2 act	Molecule
i	CCOC(=O)C1CCN(c2ccnc(=S)[nH]2)CC1
i	COc1cc(NC(=O)c2cc(=O)c(OCc3ccccc3)c[nH]2)cc(OC)c1OC
i	Cc1ccc(Nc2nc(NCc3cccnc3)nc3n[nH]nc23)cc1
i	O=C(CCC1CCCC1)NC1CCN(C(=O)c2cc(-c3ccccc3)n[nH]2)CC1
i	CCN(CCCNC(=O)CCn1c(=O)[nH]c2ccccc2c1=O)c1cccc(C)c1
i	O=C(c1ccc(=O)[nH]c1)N1CCC(COCc2ccccc2)CC1
i	O=C(NCCN1CCCC1)c1ccc(Cn2c(=S)[nH]c3cc4c(cc3c2=O)OCO4)cc1
i	COCCNC(=O)CSc1nc(-c2cccc(OC)c2)[nH]c1-c1ccccc1
i	O=C(CCn1c(=O)[nH]c2ccccc2c1=O)NCc1ccc2c(c1)OCO2
i	CCOc1ccc(-c2n[nH]c(C)c2Oc2ccc(OC)cc2)c(O)c1
i	CCOC(=O)c1cn[nH]c1S(=O)(=O)N1CCN(c2ccc(C(C)=O)cc2)CC1
i	S=c1nc[nH]c2[nH]ncc12
i	CC1=C(C(=O)Nc2ccc3[nH]ncc3c2)C(c2ccc3ccccc3c2)CC(=O)N1 (centres undefined)
i	NC(=O)c1ccc(NC(=O)c2c[nH]c3ccccc3c2=O)cc1
